GIV-Gai inh = inhibitors of GIV GBA-motif binding to rat Galpha-i3; 0.42% of 210,000 active; percent of control (FP), % (concentration not given with the values); Galpha-i3/FITC-GIV peptide fluorescence polarization, 90 min; hits give low values; scaled: aluminum fluoride 0%, vehicle 100%; AID 1224905; P08753;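 active = replicate mean at 85% of control or lower, very high polarization wells dropped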;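 also: wells of about 15 µL received 100 nL stock; the first replicate is given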
Target sequence (P08753 whole entry, looked up): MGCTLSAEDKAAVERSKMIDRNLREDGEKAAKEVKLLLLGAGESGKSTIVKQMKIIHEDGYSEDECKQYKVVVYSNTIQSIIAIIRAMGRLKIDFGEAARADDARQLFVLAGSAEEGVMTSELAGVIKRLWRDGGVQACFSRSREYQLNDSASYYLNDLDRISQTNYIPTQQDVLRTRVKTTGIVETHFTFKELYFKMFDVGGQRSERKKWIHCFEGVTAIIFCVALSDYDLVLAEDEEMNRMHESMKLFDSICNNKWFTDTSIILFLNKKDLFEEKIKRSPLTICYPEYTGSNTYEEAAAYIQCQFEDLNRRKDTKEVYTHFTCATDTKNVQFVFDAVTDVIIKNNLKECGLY
Sa growth inh = blocks Staphylococcus aureus growth | S. aureus RN4220 growth, OD600, 20 h, 42 °C; hits give low values | relative growth, % (concentration not given with the values) | 0.53% of 170,000 active | AID 720641;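 active = growth at 42 °C up to 50% and 20 or more points under that at 30 °C, or under 10% at both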;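 also: 300 nL library stock went into each well; scaled to the means of positive and negative controls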
HCMV UL50-53 inh = inhibitors of HCMV UL50-UL53 nuclear egress complex interaction; HTRF UL50-UL53 interaction, normalized percent inhibition; inhibition, % (no concentration beside the values); 0.15% of 190,000 active; AID 1918969;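 active = both replicates at 50% or more, plus weaker picks with an unusually low signal ratio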;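 also: stock transfer was 100 nL into about 20 µL; 0% = negative control wells and 100% = wells with untagged competitor protein; inactives centre near -12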
Sa growth inh second temp = further read-out of Sa growth inh, marked with its call; relative growth, %; measured here: growth at 30 °C;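 optical density after 20 h as mean of two plates; 100% = untreated growth and lower means inhibition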
* marks the source's active call; other numbers are inactive results; . = no result given; & = joins results of further samples.

SMILES	GIV-Gai inh	Sa growth inh	Sa growth inh second temp	HCMV UL50-53 inh
CCN(CCCNC(=O)c1c(C)oc2ncn(CC(C)C)c(=O)c12)Cc1ccccc1	106	106	89	.
Cc1ccc(Cl)cc1N1CCN(CCCNc2nc3ccccc3n3c(C)nnc23)CC1	102	108	96	.
CCCCn1c(-c2ccc(Br)cc2)nc2ccccc21	102	86	67	.
O=S(=O)(c1ccccc1)c1nc(-c2ccco2)oc1SCc1ccc(F)cc1	94	94	88	-6
NC(=O)C1CCN(C(=O)c2cn(-c3ccccc3)nc2-c2cccs2)CC1	.	111	87	-15
O=C(Cn1c(SCc2ccc(F)cc2)nc2cccnc21)N1CCCc2ccccc21	109	122	94	.
O=C(c1nn(Cc2ccccc2)c(=O)c2ccccc12)N1CCN(Cc2ccc3c(c2)OCO3)CC1	.	84	97	-5
CCC1(C)NC(=O)N(/N=C/c2cn(-c3ccccc3)nc2-c2cc3ccccc3o2)C1=O (stereo not drawn)	.	77	42	-13
CCOc1ccc(-n2c(O)c(C3=c4cc(Br)ccc4=NC3=O)sc2=S)cc1	103	.	.	-15
O=C(NCCc1ccccc1)C(=S)N1CCCC1	106	107	98	-5
COc1ccc(CCN2CCC(CNC(=O)c3cnn(-c4cccc(Cl)c4)c3C3CCN(C(=O)OC(C)(C)C)CC3)CC2)cc1	103	103	46	.
O=c1c2ccccc2[nH]c(=S)n1CCCn1ccnc1	106	100	103	17
CC(C)c1ccc(NCCC(=O)c2ccc(Cl)s2)cc1	106	85	83	-6
CC1=C(C(=O)Nc2ccccc2C)Sc2ccccc2N1	.	101	85	-4
COc1ccccc1C(=O)Nc1nc(-c2ccccc2)ns1	100	85	88	-25
Cc1ccccc1OCC1=NN2C(=N)/C(=C\c3cccn3-c3ccccc3C)C(=O)N=C2S1	91	106	88	-14
CCc1ccccc1NC(=O)C1CCCN(c2nnc(-n3c(C)ccc3C)s2)C1 (stereo not drawn)	104	98	84	-13
Cc1ccc(-n2ccn(CC(=O)NCCc3ccccc3)c(=O)c2=O)cc1C	105	105	103	-11
Cc1sc(-c2c(F)cccc2F)nc1O	106	94	77	-52
CCOC(=O)N1CCN(c2ccc(S(=O)(=O)N(Cc3ccccc3)Cc3ccccc3)cn2)CC1	.	84	92	-12
CCOc1ccc(N2CC(=O)SC2=S)cc1	100	76	102	-5
COc1ccc(CNCc2c(C(=O)O)c(C)n(-c3ccc(C)cc3)c2C)c(OC)c1	148	.	.	-30
Cc1ccc(-c2nn(-c3ccccc3)c3c2cnc2ccccc23)cc1C	108	96	84	-3
O=C(Nc1cnc2ccccn2c1=O)NC1CCCC1	95	93	85	-84
CCOc1ccc(N=C2SCC(=O)N2CC)cc1	99	121	67	-8
CCOC(=O)c1c(C)c(-c2ccccc2)n(CC(=O)NCc2ccccc2)c1C	102	102	87	-30
CNC(=O)CN(Cc1ccccc1)S(=O)(=O)c1ccc(Cl)cc1	104	107	95	.
CC(CCc1ccccc1)Nc1nc2ccccc2n2cnnc12 (stereo not drawn)	103	103	85	1
Cc1cccc(C(=O)NCCc2ccc(S(N)(=O)=O)cc2)c1	.	72	86	-18
Cc1cc(N2CCN(c3cccc(C)c3C)CC2)n2nc(C)c(-c3ccc(Cl)cc3)c2n1	97	87	86	-13
COc1cc(NC(=O)CCNS(=O)(=O)c2ccc3c(c2)CCCC(=O)N3)cc(OC)c1OC	106	92	88	-27
CCOc1ccc(CCNC(=O)c2cnc3sc(N4CCC(C)CC4)nn3c2=O)cc1	100	89	88	.
CN1C(=O)c2ccccc2Sc2ccc(NC(=O)N3CCCC3)cc21	114&104	98	90	-4
CC(C)CSc1nccn2nc(-c3cccs3)cc12	100	.	.	3
Cc1ccc(CN(C(=O)C(C)Oc2ccc(Cl)c(C)c2)C2CCS(=O)(=O)C2)o1 (stereo not drawn)	104	100	79	-4
O=C(c1ccc2c(=O)n3c(nc2c1)CCCC3)N1CCCC1	109	.	.	-19
COc1ccc(NC(=O)Cc2nn(C)c(=O)c3ccccc23)cc1	102	114	82	.
CCOC(=O)Cn1c(=O)n(C2CCCCC2)c2nc(-c3ccc(OC)cc3)nc(C(N)=O)c21	102	94	97	.
CCOc1ccccc1NS(=O)(=O)c1cc2[nH]c(=O)c(=O)[nH]c2cc1C	103	108	89	.
Cc1ccccc1OCC(=O)Nc1ccc(C(=O)OCc2cc(=O)n3c(C)csc3n2)cc1	102	92	95	.
O=C(c1ccc(S(=O)(=O)NCc2ccco2)cc1)N1CCC(n2c(=O)[nH]c3ccccc32)CC1	.	97	90	-33
COc1ccc(NC(=O)c2cc(-c3cccnc3)n(-c3ccccc3)n2)cc1OC	101	.	.	1
Cc1cc(-c2cccs2)c2c(N)c(C(=O)c3ccccc3)sc2n1	195	100	97	.
CCc1sc(C(=O)Nc2cccc(Cn3cccn3)c2)cc1Br	107	124	104	-3
CCC(=O)N1CCc2cc(S(=O)(=O)CCC(=O)NC3CCCCCC3)ccc21	102	98	90	-2

Compound profiles, as listed above. Screens in order: GIV-Gai inh, Sa growth inh, Sa growth inh second temp, HCMV UL50-53 inh
CCc1sc(C(=O)Nc2cccc(Cn3cccn3)c2)cc1Br is entered as 107, 124, 104, -3
CCOc1ccccc1NS(=O)(=O)c1cc2[nH]c(=O)c(=O)[nH]c2cc1C is entered as 103, 108, 89, .
Cc1ccc(CN(C(=O)C(C)Oc2ccc(Cl)c(C)c2)C2CCS(=O)(=O)C2)o1 (stereo not drawn) is entered as 104, 100, 79, -4

The listing continues:
SMILES	GIV-Gai inh	Sa growth inh	Sa growth inh second temp	HCMV UL50-53 inh
COc1ccc(NC(=O)C(C)n2nc(-c3cc(C)ccc3C)c3c(c2=O)CCCC3)cc1 (stereo not drawn)	100	89	81	-17
CCC(c1c(N)[nH]c(=S)[nH]c1=O)c1c(N)[nH]c(=S)[nH]c1=O	102	94	83	-13
O=C(NCc1ccc(-c2csnn2)cc1)c1cccs1	99	87	73	0
CCC1CCCCN1C(=O)Cn1c(=O)n(Cc2ccccc2Cl)c(=O)c2cc(OC)c(OC)cc21 (stereo not drawn)	101	94	88	.
CC(=O)OC1CSSCC1OC(C)=O (stereo not drawn)	97	98	91	-274
CC1Cn2c(C(=O)NCc3ccccc3)cc3c(Cl)ccc(c32)O1 (stereo not drawn)	103&105	107	92	19
COc1ccc(NC(=S)N(Cc2ccccc2)Cc2cccn2Cc2ccc(C)cc2C)cc1OC	102	106	85	.
CCc1cccc(NC(=O)c2sc(-n3cccc3)nc2C)c1	102	90	90	.
CCCC(=O)Nc1cccc(N)c1	.	104	100	-25
CC(=O)Nc1ccc(SC(F)(F)C(F)(F)C(F)(F)F)cc1	103	129	94	-20
CN(Cc1ccccc1)C(=O)CCS(=O)(=O)c1cc2c(cc1Cl)NC(=O)CO2	102	106	87	-5
CC(=O)OCCc1c(C)nc2c(S(=O)(=O)c3ccc(C)cc3)c(Nc3ccccc3)[nH]n2c1=O	103	.	.	-17
CCN(CC)CCCNC(=O)c1cnc(SC)nc1-c1ccccc1	102	102	91	.
CCN1C(=O)/C(=C/c2c[nH]c3ccccc23)c2ccccc21	.	90	76	-22
CCOC(=O)N1CCC(NC(=O)C2CCCN(c3ncnc4c3sc3cccc(F)c34)C2)CC1 (stereo not drawn)	103	108	100	.
CCOCCCn1c(SCC(=O)Nc2ccc(C)cc2)nc2ccccc2c1=O	104	80	92	.
CCc1ccc(NCc2cc3ccc(OC)cc3n(CC(=O)Nc3ccc4c(c3)OCO4)c2=O)cc1	103	.	.	-11
O=C1CC(c2cccnc2)c2cc3c(cc2N1)OCCO3 (stereo not drawn)	100	.	.	-10
CCN(C(=O)COc1ccc(-c2nnco2)cc1)c1cccc2ccccc12	.	104	76	-18
COc1ccc(/C=N/NC(=O)c2ccc3c(c2)NC(=O)C(C)(C)O3)cc1OC	101	89	97	-34
O=C(OCC(=O)N1CCN(Cc2ccccc2)CC1)c1ccc(Cl)cc1	.	99	86	-3
COC(=O)c1cccc(C(=O)Nc2cnc3ccccc3c2)n1	104	98	96	.
CC1(C)CN=C(NC2CCCCC2)S1	107	83	93	17
CNC(=O)c1oc2c(c1C)C(=O)CC(C)(C)C2	105	96	102	4
COC(=O)c1ccc(Oc2nc(-c3cccnc3)nc3ccccc23)cc1	108	88	90	1
Cc1c(S(=O)(=O)N2CCc3nc(N4CCCCC4)ncc3C2)cnn1C(F)F	112	.	.	-17
COc1ccc(C2(CC(=O)O)CCOC(C)(C)C2)cc1 (stereo not drawn)	96	91	88	-4
COc1cc(C2SCCS2)cc(Br)c1OC(=O)NC(=O)c1c(F)cccc1F	96	75	81	11
CC1=C(C(=O)Nc2ccc(C)cc2)C(c2ccc([N+](=O)[O-])cc2)n2nnnc2N1 (stereo not drawn)	107	.	.	-40
Cc1ccc(OCc2nn3c(COc4ccc(F)cc4)nnc3s2)cc1C	107	.	.	7

Next section; it opens with the six that closed the last part.
SMILES	GIV-Gai inh	Sa growth inh	Sa growth inh second temp	HCMV UL50-53 inh
COC(=O)c1ccc(Oc2nc(-c3cccnc3)nc3ccccc23)cc1	108	88	90	1
Cc1c(S(=O)(=O)N2CCc3nc(N4CCCCC4)ncc3C2)cnn1C(F)F	112	.	.	-17
COc1ccc(C2(CC(=O)O)CCOC(C)(C)C2)cc1 (stereo not drawn)	96	91	88	-4
COc1cc(C2SCCS2)cc(Br)c1OC(=O)NC(=O)c1c(F)cccc1F	96	75	81	11
CC1=C(C(=O)Nc2ccc(C)cc2)C(c2ccc([N+](=O)[O-])cc2)n2nnnc2N1 (stereo not drawn)	107	.	.	-40
Cc1ccc(OCc2nn3c(COc4ccc(F)cc4)nnc3s2)cc1C	107	.	.	7
COc1ccc(OCC(=O)Nc2ccc(Cl)c(-c3nc4ncccc4o3)c2)cc1	103	100	105	15
CS(=O)(=O)NCCc1ccccc1	99	93	81	.
COc1cccc(CNC(=O)CSC2=Nc3ccccc3N=C(c3ccccn3)C2)c1OC	104	.	.	-5
COC(=O)c1sccc1S(=O)(=O)N(CC(=O)NCc1ccc(C)cc1)c1ccc(C)cc1	103	112	85	.
O=C(Nc1ccccc1C(=O)O)c1cc(S(=O)(=O)N2CCCC2)ccc1Cl	.	167	94	-8
COc1ccc(OC)c(NC(=O)Cn2c(=O)cc(-c3ccccc3)c3c(C)nn(C)c32)c1	106	94	83	.
Cn1c(=O)c2[nH]c(-c3ccc(Cl)cc3)c(O)c2n(C)c1=O	.	115	92	-12
CCSc1ccccc1C(=O)N=C1NC(=O)CC2C(=O)NCCN12 (stereo not drawn)	104	96	90	-19
Cc1ccc(N(C)S(=O)(=O)c2ccc(-c3cnc(C4CC4)o3)cc2)cc1	99	87	81	.
CCC(Sc1nc2nccnc2c(=O)n1Cc1ccc2c(c1)OCO2)C(=O)NC1CCCCC1 (stereo not drawn)	99	90	80	.
Cn1ncc2c(Nc3cccc(C(F)(F)F)c3)ncnc21	102	14	0	4
O=C(c1cccnc1)N1CCC(Cc2ccccc2)CC1	100	84	73	10
Cc1ccccc1CNC(=O)CCCn1c(=O)c2cccn2c2cccnc21	103	88	92	.
CCOC(=O)CCc1c(C)n(CC)c2ncnn2c1=O	101	95	98	6
Cn1c(=O)n(-c2ccc(F)cc2)c2nc(-c3cccc(F)c3)nc(C(N)=O)c21	104	.	.	-10

The closing 7 entries of the section before lead into the next:
SMILES	GIV-Gai inh	Sa growth inh	Sa growth inh second temp	HCMV UL50-53 inh
Cc1ccc(N(C)S(=O)(=O)c2ccc(-c3cnc(C4CC4)o3)cc2)cc1	99	87	81	.
CCC(Sc1nc2nccnc2c(=O)n1Cc1ccc2c(c1)OCO2)C(=O)NC1CCCCC1 (stereo not drawn)	99	90	80	.
Cn1ncc2c(Nc3cccc(C(F)(F)F)c3)ncnc21	102	14	0	4
O=C(c1cccnc1)N1CCC(Cc2ccccc2)CC1	100	84	73	10
Cc1ccccc1CNC(=O)CCCn1c(=O)c2cccn2c2cccnc21	103	88	92	.
CCOC(=O)CCc1c(C)n(CC)c2ncnn2c1=O	101	95	98	6
Cn1c(=O)n(-c2ccc(F)cc2)c2nc(-c3cccc(F)c3)nc(C(N)=O)c21	104	.	.	-10
COc1cccc(NC(=O)/C=N/O)c1	.	84	92	0
CS(=O)(=NS(=O)(=O)c1ccccc1C(F)(F)F)c1ccc(Cl)cc1 (stereo not drawn)	105	80	79	-30
CC(=O)N1CCCSc2ccc(S(=O)(=O)N3CCC(N(C)C(C)C)CC3)cc21	109	.	.	6
CCS(=O)(=O)c1ccc2nc(SCC(=O)n3c4c(c5ccccc53)CCCC4)oc2c1	101	126	97	2
CC(C)(C)c1cc(C(=O)NN)no1	100	98	81	-16
NC1=NC2(CCCC2)N=C(Nc2ccccc2)N1	.	80	93	-14
Cc1cc(C)cc(-n2nnc(C(=O)O)c2C)c1	99	.	.	-17

Pulled by compound from the entries so far, 2 records:
SMILES	GIV-Gai inh	Sa growth inh	Sa growth inh second temp	HCMV UL50-53 inh
CC1Cn2c(C(=O)NCc3ccccc3)cc3c(Cl)ccc(c32)O1 (stereo not drawn)	103&105	107	92	19
Cc1ccccc1OCC1=NN2C(=N)/C(=C\c3cccn3-c3ccccc3C)C(=O)N=C2S1	91	106	88	-14

Source: PubChem BioAssay (ICCB-Longwood Screening Facility, Harvard Medical School)
